AID504770 – E. coli YBA685 growth inhibition, screen for V. cholerae RctB inhibitors | E. coli YBA685 rctB-dependent plasmid, OD600 growth, 3 h; stronger effect = lower value | 130,000 tested, 0.27% active | z-score (no concentration beside the values);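 active = z-score under -2 on both plates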;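 note: wells of about 30 µL received 100 nL stock; score is relative to mean and SD of the test wells; the first replicate is given; strong numbers were not always called active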
Ba CapD inh – CapD enzyme inhibition; purified CapD enzyme, fluorescence intensity read-out; stronger effect = lower value; some hits fall short of the stated cut; z-score (no concentration beside the values); 140,000 tested, 0.23% active;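 active = z-score under -4 in either of two replicates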;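 note: stock transfer was 100 nL into about 40 µL; score is relative to mean and spread of the plate; one replicate is shown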
* hit, by the source's call; . = no result given.

SMILES	AID504770	Ba CapD inh
O=C1c2ccccc2CCC1C(O)c1ccccn1 (configuration not stated)	1.6	-0.08
COc1ccccc1N1CCN(c2ncnc3sc(C(=O)N4CCN(C)CC4)c(C)c23)CC1	.	0.7
COc1ccc2nc(N3CCCCC3)c(/C=C3\SC(=S)NC3=O)cc2c1	2.7	2.2
CCOc1ccc(N2C(=O)CN(CC(=O)OC)C2=S)cc1	-0.55	0.15
Cn1c2c(c3c1CCCC3)CCCC2	.	5.6
COC(=O)C(C)Sc1ncnc2c1cnn2-c1ccccc1 (configuration not stated)	-0.65	.
COc1ccc(C2CC(=O)C3=C(C2)NC(C)=C(C(=O)OC(C)C)C3c2ccc(OC)c(OC)c2)cc1 (configuration not stated)	.	50
CC(=O)c1c(O)c2ccccc2n(C)c1=O	.	0.28
COc1cccc(C(O)c2nc3ccccc3n2C(C)C)c1OC (configuration not stated)	-0.65	-0.19
CCOc1cc(C)cc2oc(=O)c3c(c12)CCCC3	.	0.99
CN(C)CC#CC1(O)CCCCC1	-0.8	-0.04
O=C(Nc1ccccc1C(F)(F)F)N1CCCC1c1cccnc1 (configuration not stated)	-0.4	-0.16
O=C(NCCN1CCOCC1)Nc1ccccc1-c1ccccc1	0.6	-0.42
COc1ccc(C2C(C#N)=C(N)OC3=C2C(=O)CC(C)(C)C3)cc1COc1ccc(Cl)cc1 (configuration not stated)	.	-0.035
CSc1nc(-c2ccco2)cc(C(F)(F)F)c1C#N	-0.05	49
O=C(CN1CCOCC1)NNc1nc(-c2ccccc2)c2cc(Cl)ccc2n1	-0.95	.
CC(=O)OC1CCC2C3CCC4CCC(=O)CC4(C)C3CCC12C (configuration not stated)	-0.2	-0.59
CCn1nccc1C(=O)Nc1ccc(Cl)cc1Cl	-0.05	0.01
CCOc1ccc(NC(=O)C2NC(=O)CC2c2ccccc2)cc1 (configuration not stated)	0.35	0.07
CCOC(=O)c1c(C2CC2)csc1N	0.2	0.36

17 entries from above, in markdown:
| canonical_smiles | AID504770 | Ba CapD inh |
| --- | --- | --- |
| CCOc1ccc(N2C(=O)CN(CC(=O)OC)C2=S)cc1 | -0.55 | 0.15 |
| Cn1c2c(c3c1CCCC3)CCCC2 | . | 5.6 |
| COC(=O)C(C)Sc1ncnc2c1cnn2-c1ccccc1 (configuration not stated) | -0.65 | . |
| COc1ccc(C2CC(=O)C3=C(C2)NC(C)=C(C(=O)OC(C)C)C3c2ccc(OC)c(OC)c2)cc1 (configuration not stated) | . | 50 |
| CC(=O)c1c(O)c2ccccc2n(C)c1=O | . | 0.28 |
| COc1cccc(C(O)c2nc3ccccc3n2C(C)C)c1OC (configuration not stated) | -0.65 | -0.19 |
| CCOc1cc(C)cc2oc(=O)c3c(c12)CCCC3 | . | 0.99 |
| CN(C)CC#CC1(O)CCCCC1 | -0.8 | -0.04 |
| O=C(Nc1ccccc1C(F)(F)F)N1CCCC1c1cccnc1 (configuration not stated) | -0.4 | -0.16 |
| O=C(NCCN1CCOCC1)Nc1ccccc1-c1ccccc1 | 0.6 | -0.42 |
| COc1ccc(C2C(C#N)=C(N)OC3=C2C(=O)CC(C)(C)C3)cc1COc1ccc(Cl)cc1 (configuration not stated) | . | -0.035 |
| CSc1nc(-c2ccco2)cc(C(F)(F)F)c1C#N | -0.05 | 49 |
| O=C(CN1CCOCC1)NNc1nc(-c2ccccc2)c2cc(Cl)ccc2n1 | -0.95 | . |
| CC(=O)OC1CCC2C3CCC4CCC(=O)CC4(C)C3CCC12C (configuration not stated) | -0.2 | -0.59 |
| CCn1nccc1C(=O)Nc1ccc(Cl)cc1Cl | -0.05 | 0.01 |
| CCOc1ccc(NC(=O)C2NC(=O)CC2c2ccccc2)cc1 (configuration not stated) | 0.35 | 0.07 |
| CCOC(=O)c1c(C2CC2)csc1N | 0.2 | 0.36 |

Next entries follow.
SMILES	AID504770	Ba CapD inh
CCn1c2ccccc2c2cc(C3N(Cc4ccccc4)CCN3Cc3ccccc3)ccc21	.	0.83
CC(Sc1nc(-c2ccccc2)c(C#N)c(=O)[nH]1)C(=O)Nc1ccccc1 (configuration not stated)	-0.15	1.5
COc1ccc(C2=NOC(C(=O)N3CCN(C)CC3)C2)cc1 (configuration not stated)	-0.3	-0.22
COc1cc(NC(=O)c2c(-c3ccccc3Cl)noc2C)cc(C(F)(F)F)c1	.	-0.52
CN(C)C(CNC(=O)c1ccccc1C(F)(F)F)c1ccco1 (configuration not stated)	-0.35	.
COc1ccc(NC(=O)C2CCN(S(=O)(=O)c3ccccc3)CC2)cc1	.	-0.27
O=C1/C(=C/C2CCCCC2)CCCc2ccccc21	-1	-0.095
CC(=O)NC1C(OCc2ccccc2)OC(CO)C(O)C1OCc1ccccc1 (configuration not stated)	-0.5	.
Cc1csc2nc(CSc3nnc(-c4cc5c(s4)CCC(C)C5)o3)cc(=O)n12 (configuration not stated)	-0.35	.
CCC(=O)N1c2ccccc2-c2nnc(SC)nc2OC1c1ccccc1F (configuration not stated)	-1	-0.89
COC(=O)c1ccccc1NC(=O)c1ccoc1C	-0.6	9.8
CC(C)c1ccc(CN2CCC(N(C)S(=O)(=O)c3ccc(Br)s3)C2)cc1 (configuration not stated)	.	0.23
Cc1cnc(SCc2cnc(C)nc2N)nc1	-0.4	0.47
N#CC1(C#N)[C@H](c2cccc(Br)c2)[C@@H](C(N)=O)N2c3ccccc3C=C[C@@H]21	.	17
Cn1c(=O)c2nc3c(nc2n(C)c1=O)[nH]c1ccccc13	.	0.54
CC(C)(CNC(=O)c1cccc([N+](=O)[O-])c1)SCc1ccc(F)cc1	.	-0.27
CC1CCCC(C)N1C(=O)COC(=O)CCc1ccccc1 (configuration not stated)	0.4	-0.22
CCN(C)C(=O)c1ccc(N2CC3CC(C2)c2cccc(=O)n2C3)c(NC(=O)c2cc(OC)ccc2Br)c1 (configuration not stated)	.	0.075
O=C(c1cnn2c1NC(c1cccs1)CC2C(F)(F)F)N1CCN(C(c2ccccc2)c2ccccc2)CC1 (configuration not stated)	.	-0.3
O=C(NCc1csc(-c2cccs2)n1)c1cccc2c1OCCCO2	0.45	7.6
O=C(Oc1ccc(-c2ccccc2)c(F)c1)c1ccco1	2.8	-0.9
COc1ccc(C(=O)Nn2c(SCC(=O)NCc3ccccc3)nc3ccccc3c2=O)cc1	.	-0.73
NC(=O)CSc1nnnn1-c1ccccc1	-0.8	0.18
Cc1ccc(CCC(=O)Nc2ccc(C(=O)O)cc2)o1	-0.2	-1.1
O=C(N1CCCc2ccccc21)C(F)(F)F	-0.6	0.35
Cc1[nH]n(-c2ccc([N+](=O)[O-])cc2)c(=O)c1C=NCc1ccncc1	.	-0.8
COc1ccc(NC(=O)c2cc(N(C)C)nc(N(C)C)n2)cc1	.	1.3
CN=C1S/C(=C\c2ccc(N3Cc4ccccc4C3)cc2)C(=O)N1C	0.25	-0.41
CN(C)S(=O)(=O)c1ccc(N(Cc2ccccc2)S(=O)(=O)c2ccc3oc(=O)ccc3c2)cc1	.	-0.05
O=C(c1ccc(Cn2c(=S)[nH]c3ccc(N4CCOCC4)cc3c2=O)cc1)N1CCC(N2CCCCC2)CC1	1.6	-1.3
COc1ccc(CC(=O)N2CCCc3ccccc32)cc1	-0.55	.
O=c1[nH]c(CSc2ncccn2)nc2ccccc12	1.2	.
O=C(CSc1nc2sc3c(c2c(=O)[nH]1)CCCC3)NCCN1CCOCC1	.	0.035
CCOC(=O)C1=CN(Cc2ccc(OC)c(OC)c2)C=C(C(=O)OCC)C1c1ccc(Cl)cc1	.	52
O=C(CN1CCN(c2ccc(C(F)(F)F)cn2)CC1)Nc1ccc2c(c1)OCO2	.	0.14
COc1cc(/C=C2/N=C(c3ccccc3I)OC2=O)cc(OC)c1OC	.	0.055
CC1=C(C(=O)N(C)C)C(c2ccccc2C(F)(F)F)NC(=O)N1 (configuration not stated)	-0.05	.
O=C(NCCC(=O)N1CCN(C(=O)c2cccs2)CC1)Nc1ccccc1	0.15	.
Cc1ccc(S(=O)(=O)NC(CC(=O)O)c2ccc(F)cc2)cc1 (configuration not stated)	-0.6	-0.01
Cc1ccc(Cn2c(CNC(=O)c3ccccc3)nc3ccccc32)cc1	0.3	0.03
O=C(O)CCc1ccco1	0.75	.
COc1ccc(NC(=O)c2nc(C)n(-c3ccc([N+](=O)[O-])cc3)n2)cc1	.	-0.05
CC(=O)Nc1ccc(Oc2nc(-c3ccccc3F)nc3ccccc23)cc1	-0.8	-0.27
CN1C(CC(O)c2ccccc2)CCCC1CC(O)c1ccccc1 (configuration not stated)	.	0.19
COc1cccc2c1OC1(CCCCC1)N1N=C(c3ccc(C)o3)CC21 (configuration not stated)	.	-1.3
O=C(O)c1cncc(O)c1	0.15	.
CC1CCCCN1S(=O)(=O)c1cn(C)c(=O)n(C)c1=O (configuration not stated)	-0.1	.
CCOC(=O)N1CCC(=Nn2c(CC)n[nH]c2=S)CC1	-0.75	.
O=S(=O)(c1ccc(NC(=S)Nc2ccc3c(c2)OCO3)cc1)N1CCOCC1	-0.05	0.58
Cc1ccc(-c2nnn(CCOc3ccccc3Cl)n2)cc1	-0.85	.

Full records as entered above. Values in the order: AID504770	Ba CapD inh
`O=C(O)c1cncc(O)c1` reads 0.15	.
`CCOC(=O)N1CCC(=Nn2c(CC)n[nH]c2=S)CC1` reads -0.75	.

Next part.
SMILES	AID504770	Ba CapD inh
CN=c1scc(-c2c(-c3ccccc3)n(C)c3ccccc23)n1C	0.25	.
CN1CCN(NC(=O)c2ccc(Cl)cc2)CC1	-0.15	.
CC(=O)C1=NN(c2cccc(Cl)c2C)C2(S1)c1ccccc1C(c1ccc(C)cc1)=NN2c1ccccc1 (configuration not stated)	.	-0.39
O=C(CSc1nnc(CNC(=O)c2ccccc2F)o1)Nc1ccc2c(c1)OCCO2	0.9	-0.08
S=c1nc(CCCCc2nc(=S)[nH][nH]2)[nH][nH]1	-0.45	-0.28
CC(=O)N1CCN(S(=O)(=O)c2cccc(C(=O)OCC(=O)N3N=C(c4ccc(C)cc4)CC3c3ccco3)c2)CC1 (configuration not stated)	1	.
CCCOC(=O)c1ccc2c(c1)C(=O)N(c1ccccc1)C2=O	0.65	.
Brc1cc(Br)c2c(c1)C=C1CCCCCC1(N1CCOCC1)O2 (configuration not stated)	-0.5	-0.33
Cc1cccc(-n2[nH]nnc2=S)c1	-0.6	0.28
COc1ccccc1NC(=O)c1c(C)nc(SCC(=O)OC(C)C)c(C#N)c1-c1ccco1	-1.1	.
CC1CCN(C(=O)Cn2cnc3c(cnn3-c3ccccc3)c2=O)CC1	1.2	3.4
CCOC(=O)c1cn2c3c(ccc(C)c3c1=O)OC(CC)C2 (configuration not stated)	0.3	64
CN(C)/C=C/C(=C/C(=O)C(F)(F)F)Nc1ccccc1-c1ccccc1	.	-2.7
Nc1nc(COc2ccccc2Cl)ncc1S(=O)(=O)c1ccccc1	0.45	-0.12
Nc1cc(C(F)(F)F)ccc1NCCc1ccccn1	.	-0.99
COc1ccc(/C=N/NC(=O)COc2ncn(-c3ccccc3)n2)cc1	.	-0.42
CC1CCN(CC(=O)c2ccc(OC(F)F)cc2)CC1	-0.5	.
Cc1ccc(N2C(=S)NC3c4cc(Cl)ccc4OC2(C)C3C(=O)Nc2ccc(C)cc2C)cc1 (configuration not stated)	1.9	-0.075
Cc1noc2ncn(CC(=O)N3CCC(C)CC3)c(=O)c12	-1	-0.63
CC(C)NC(=O)c1ccc(CS(=O)c2ccc(Cl)cc2)o1 (configuration not stated)	1.7	0.12
Cc1c(Nc2nc3nonc3nc2Nc2c(C)n(C)n(-c3ccccc3)c2=O)c(=O)n(-c2ccccc2)n1C	.	-0.83
CC(=O)Nc1ccc(NC(=O)c2cccc(N(C)C)c2)cc1	0.55	.
O=C(CCCn1c(=O)c2sccc2n(CC(=O)c2ccccc2)c1=O)NCc1ccc2c(c1)OCO2	-0.3	0.66
O=C1C2C3C=CC(C3)C2C(=O)N1CCN1CCN(S(=O)(=O)/C=C\c2ccccc2)CC1 (configuration not stated)	.	-0.24
Cn1c(N)c(C(=O)CSc2nnc(C3CC3)n2-c2ccccc2)c(=O)[nH]c1=O	-0.55	.
Cc1ccc(N2NC3(CCCCC3)NC2=S)cc1C	.	0.095
COC(=O)/C(=C/N(C)C)NC(=O)c1ccccc1	0.5	0.23
COc1ccc(CNC(=O)c2c[nH]c3ccccc23)cc1	-0.45	-0.2
CCOC(=O)N1CCC(Nc2nc3ccccc3c3nnc(C)n23)CC1	2	2.3
COc1cccc(CN(C)C(=O)c2ccc3c(c2)NC(=O)CS3)c1	-0.95	.
N/C(Cc1nc(-c2ccc(Cl)cc2)cs1)=N\O	2.2	-1.6
c1ccc2c(N3CCCCC3)nnc(N3CCCCC3)c2c1	.	-0.035
COc1ccccc1CNC(=O)c1cccc(F)c1	0.9	.
CCOC(=O)NC(=O)/C(C#N)=C/Nc1ccc(I)cn1	.	2.9
O=C1COc2ccc(C(=O)COC(=O)c3cccc(S(=O)(=O)N4CCCCC4)c3)cc2N1	1.1	.
Cc1cccc(N(C)c2cc(C)nc3nc(C)nn23)c1	-0.9	-0.99
O=S(=O)(NC1CCCCC1Nc1ccccc1)c1ccccc1 (configuration not stated)	0	0.17
CCSc1nc2ccccc2n1C(CC(=O)O)C(=O)O (configuration not stated)	0.35	-0.12
COc1cc(NC(=O)c2ccco2)c(OC)cc1NC(=O)CCC(=O)NC1CCN(Cc2ccccc2)CC1	-1.4	.
Cn1nc2n(c1=O)-c1ccccc1SC2	0	0.1
CCOc1cccc2c1OC(c1cccc(Cl)c1)N1N=C(c3ccc(OC)cc3)CC21 (configuration not stated)	.	-1.1
CC(C#N)Oc1ccc(Cl)cc1Cl (configuration not stated)	0.5	0.64
Cc1cccc(N=Nc2c(C)[nH]n(C(N)=S)c2=O)c1	-0.2	-0.36
CCN(CC)S(=O)(=O)c1ccc2c(c1)nc(-c1ccccc1)n2C	0.4	.
CCc1cc(-c2nc(N)ncc2-c2ccc(OC)cc2)c(O)cc1OC	-0.15	.
O=C(Nc1cc(C(F)(F)F)ccc1Cl)c1cc(S(=O)(=O)NCc2ccc3c(c2)OCO3)ccc1F	.	-0.68

From PubChem BioAssay
